Arbovirus inh: arbovirus infection inhibition; AID 1251; 200,000 compounds, 0.37% hits; inhibition, % at 10 µM; arbovirus infection cell-based antiviral screen;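 active = inhibition from about 30%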;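 also: bluetongue infection of BSR cells; cell survival read as ATP light after 72 h; 0% = infected wells without compound and 100% = uninfected wells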
Mtb H37Rv: M. tuberculosis H37Rv growth inhibitors, H37Rv strain (AID 1626). M. tuberculosis H37Rv growth inhibition; higher % means a stronger effect. one-dose inhibition, % at 10 µM; IC50 in µM for titrated hits. 220,000 compounds, 0.95% hits;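 active = confirmed in a dose series; inconclusive = inhibition above 80% but not taken into the dose series; inactive = below 80% or under 30% at every dose of the series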;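 also: bacteria incubated seven days before Alamar blue readout; 0% = bacteria only wells and 100% = bacteria with antibiotic wells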
Mtb betalactam: beta-lactam sensitization of Mtb H37Rv | M. tuberculosis H37Rv growth with meropenem, percent inhibition; hits of this screen are not shown here | 330,000 compounds, 0.27% hits | AID 434955 | inhibition, % at 25 µM;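 active = about 74% or more and at least 40 points above the plate without the antibiotic, then above 30% in a dose series; inconclusive = first-round hits that could not be retested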;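 also: growth measured after seven days incubation then overnight dye step; 0% = bacteria only wells and 100% = bacteria with antibiotic; twin plates without the antibiotic show which effects depend on it; some results filed as inactive read as strong as hits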
RecA intein inh: Mtb RecA intein splicing inhibition. P9WHJ3. cell-free RecA intein splicing, fluorescence. inhibition, %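 (about 9 µM by stock and volumes)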. 290,000 compounds, 0.75% hits. AID 2221; in the data active = inhibition above about 30%; inconclusive = no clear call, values can overlap the other calls;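 also: 0% = vehicle wells and 100% = reference inhibitor control wells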
Target sequence (P9WHJ3 whole entry, looked up): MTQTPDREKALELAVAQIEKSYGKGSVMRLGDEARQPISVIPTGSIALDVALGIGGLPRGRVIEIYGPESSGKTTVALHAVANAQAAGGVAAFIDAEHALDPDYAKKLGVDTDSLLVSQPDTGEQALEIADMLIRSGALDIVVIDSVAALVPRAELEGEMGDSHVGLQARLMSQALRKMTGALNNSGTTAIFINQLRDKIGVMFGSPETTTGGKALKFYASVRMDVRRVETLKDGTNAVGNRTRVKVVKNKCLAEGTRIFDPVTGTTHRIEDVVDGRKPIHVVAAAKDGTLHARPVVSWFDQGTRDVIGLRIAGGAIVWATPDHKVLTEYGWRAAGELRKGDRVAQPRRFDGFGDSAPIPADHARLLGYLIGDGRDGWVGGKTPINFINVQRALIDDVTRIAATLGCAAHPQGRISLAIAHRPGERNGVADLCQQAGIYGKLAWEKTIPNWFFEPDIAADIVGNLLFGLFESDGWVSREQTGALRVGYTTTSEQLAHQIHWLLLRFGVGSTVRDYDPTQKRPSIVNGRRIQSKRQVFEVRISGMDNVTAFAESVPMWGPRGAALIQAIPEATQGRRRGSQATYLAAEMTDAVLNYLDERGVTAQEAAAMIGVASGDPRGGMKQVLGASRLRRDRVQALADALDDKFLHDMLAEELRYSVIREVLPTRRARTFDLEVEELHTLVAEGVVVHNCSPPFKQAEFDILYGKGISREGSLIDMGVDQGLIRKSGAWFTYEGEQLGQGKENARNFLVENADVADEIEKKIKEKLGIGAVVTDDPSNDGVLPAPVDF
YopH PTP inh: YopH (Yersinia) phosphatase inhibition; inhibition, %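 (about 10 µM by stock and volumes)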; 140,000 compounds, 0.16% hits; fluorescence Ex485/Em525; AID 898;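 active = inhibition of 50% or more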;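 also: controls were vehicle for no effect and minimum signal wells for full effect; inactives centre near -20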
Arbovirus inh repeat: also measured in Arbovirus inh; calls as there; inhibition, %; measured here: 10K subset replicate screen; many hits read low in the repeat;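 first of two repeat runs on a subset; 0% = infected and 100% = uninfected wells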
* marks the source's active call; other numbers are inactive results; ? = inconclusive; · = not tested or not shown; & = joins results of further samples. The list is partial; count on the stated rates, not on these rows.

SMILES | Arbovirus inh | Mtb H37Rv | Mtb betalactam | RecA intein inh | YopH PTP inh | others
CCOc1ccccc1C1CC(c2ccc(Br)cc2)Nc2nc(N)nn21 (configuration not stated) | 0 | 7% | 7 | 2.6 | -31 | Arbovirus inh repeat=2
COc1ccc(NC(=O)C2CCCN2S(=O)(=O)c2cccc3cccnc23)cc1OC (configuration not stated) | · | · | -7 | 1.5 | ·
CCn1c(Cc2cccs2)nnc1SCC(=O)NC1CC1 | · | · | -7 | -1.4 | ·
Cc1ccc(OC(=O)N2CCOCC2)cc1 | 7 | -3% | 8 | 1.0 | -31
Cc1ccc(CNC(=O)CCC2CCCN(Cc3cccc4cccnc34)C2)o1 (configuration not stated) | 5 | -5% | -4 | 1.7 | ·
Cc1ccc(NC(=O)NCCCN2CCCC2=O)cc1C | · | · | -17 | -2.0 | ·
CCOC(=O)Cc1csc(NS(=O)(=O)c2cccc([N+](=O)[O-])c2)n1 | · | · | 3 | -0.6 | ·
Cc1ccccc1N/N=C/c1ccc(C#N)cc1 | -31 | 8% | 24 | 0.0 | -26
COc1cccc(NC(=O)CNC(=O)Cn2cnc3sc4c(c3c2=O)CCCC4)c1 | · | · | 99 | 2.2 | ·
COc1ccc(/C=N/NC(=O)c2cccc(NC(C)=O)c2)c(OC)c1 | 0 | 12% | -4 | -5.1 | ·
Cc1cc(C(=O)CSc2nc3ccc(Cl)cc3[nH]2)c(C)n1Cc1ccco1 | · | · | -1 | 6.2 | ·
CCOC(=O)CN(C(=O)CNC(=O)c1ccco1)C(C(=O)NC1CCCC1)c1ccccc1OCC (configuration not stated) | 6 | -3% | -5 | 0.8 | -6
COc1ccccc1NC(=S)NC(=O)Cc1ccc(Cl)cc1 | · | · | 9 | -1.4 | ·
C/C(=N/NC(=O)CSc1nc2ccccc2n1C)c1ccc(O)cc1 | -1 | -6% | -6 | -1.2 | ·
COC(=O)c1cc(-c2ccc(OC)c(OC)c2)c2c(=O)[nH]c(=O)n(C)c2n1 | · | · | 7 | -18 | ·
Cc1ccc(C(=O)Nc2cccc(NC(=O)c3cccnc3)c2)cc1 | · | · | -2 | 1.4 | ·
Cc1ccc(CN2C(=O)CCC2C(=O)NC(C)C)cc1 (configuration not stated) | 6 | -4% | 3 | 0.8 | -62
CCOC(=O)CSc1nc2cc(C(=O)N3CCCC3)ccc2c(=O)n1Cc1ccccc1 | 6 | -1% | 0 | 5.0 | -4
O=C(C1CCCN(CCCc2ccccc2)C1)N1CCCCC1 (configuration not stated) | -7 | 4% | -7 | 5.4 | -21
CC(=O)Nc1ccc(/C=N/OCC(=O)Nc2ccc(C)cc2)cc1 | 2 | -4% | 0 | 0.2 | -23
CCOCCCN1CC(C(=O)NCCc2ccc(C)cc2)CC1=O (configuration not stated) | 6 | -8% | -9 | -1.0 | -30
Cc1cc(O)c(C2(O)C(=O)Nc3cc(Br)ccc32)cc1C (configuration not stated) | · | · | 3 | 2.5 | ·
Cc1ccccc1C(=O)Oc1ccc(Sc2ccc(O)cc2)cc1 | -18 | · | -10 | 19 | -26
Cc1cccc(C(OC(=O)c2ccco2)C(=O)NCc2ccccc2)n1 (configuration not stated) | 4 | -6% | -1 | 0.8 | 17
N#Cc1ccccc1OCC(=O)N1CCc2ccccc2C1 | 0 | 7% | -5 | 0.1 | ·
CCN(CC(=O)NCc1cccs1)C(=O)c1ccccc1Cl | 6 | 6% | -4 | -0.9 | ·
COc1ccc(/C=N/N2CCOCC2)cc1O | 1 | -5% | -8 | -3.0 | -36
CCCCOc1ccc(/C(N)=N/O)cc1 | -21 | 8% | -1 | 2.9 | -21 | Arbovirus inh repeat=-6
CCN(C(=O)COC(=O)c1ccccc1NC(=O)c1ccco1)C1CCS(=O)(=O)C1 (configuration not stated) | -2 | 7% | 1 | 2.9 | ·
COc1cc(/C=C(\C#N)C(N)=O)ccc1OS(=O)(=O)c1ccc(C)cc1 | 10 | 0% | -4 | 11 | -38
Cc1cc(Cn2nc(-c3ccccc3)cc2C(=O)NCc2cccc(Br)c2)on1 | · | · | 5 | -1.6 | ·
CCN1CCN(CCC(=O)Nc2ccc3c(c2)OCO3)CC1 | -2 | -5% | -23 | -0.1 | 32
Cc1ccc(NC(=S)Nc2ccc3nc(-c4ccccn4)c(-c4ccccn4)nc3c2)cc1C | 7 | 4% | 7 | · | -23
Cc1ccccc1C1CC(c2ccc(F)cc2)Nc2nc(N)nn21 (configuration not stated) | 6 | -4% | ? | -1.2 | -13
CCC(C)NC(=S)N(Cc1cc2cc(C)ccc2n2nnnc12)CC(C)(C)NC(C)C (configuration not stated) | · | · | 77 | 0.8 | ·
Cc1nn(Cc2ccccc2)c(Cl)c1C(=O)OCC(=O)Nc1cccc2ccccc12 | -8 | 2% | -4 | -0.6 | -14
CCOC(=O)c1c(C)n(C)c2ccc(OCC(O)CN3C(=O)c4ccccc4S3(=O)=O)cc12 (configuration not stated) | 4 | -3% | · | 3.7 | -29
CCOC(=O)C1CCCN(C(=O)CN2C(=O)COc3ccc(C(C)(C)C)cc32)C1 (configuration not stated) | 3 | · | 3 | 3.8 | -25
CCN(CC)CCNc1ncnc2c1sc1nc(N3CCCC3)c3c(c12)CC(C)(C)OC3 | -20 | 71% | 41 | -0.4 | ·
CC(C)(C)N(Cc1cc2ccccc2[nH]c1=O)C(=O)c1cccnc1 | 3 | -8% | 2 | 1.5 | 1

Sorted by heavy-atom count (high to low): 3 of the compounds above.
SMILES | Arbovirus inh | Mtb H37Rv | Mtb betalactam | RecA intein inh | YopH PTP inh | others
CCN(CC)CCNc1ncnc2c1sc1nc(N3CCCC3)c3c(c12)CC(C)(C)OC3 | -20 | 71% | 41 | -0.4 | ·
CC(C)(C)N(Cc1cc2ccccc2[nH]c1=O)C(=O)c1cccnc1 | 3 | -8% | 2 | 1.5 | 1
CCOCCCN1CC(C(=O)NCCc2ccc(C)cc2)CC1=O (configuration not stated) | 6 | -8% | -9 | -1.0 | -30

(continued)
SMILES | Arbovirus inh | Mtb H37Rv | Mtb betalactam | RecA intein inh | YopH PTP inh | others
CC1Oc2ccccc2C=C1/C=N/NC(=O)c1ccccc1 (configuration not stated) | -11 | 6% | -3 | -3.1 | -30
COc1ccccc1CN1CC(C(=O)NC2CCOCC2)CCC1=O (configuration not stated) | · | · | -13 | 1.4 | ·
Cc1ccc(OCC(=O)N(Cc2ccccc2)C(C)(C)C)c([N+](=O)[O-])n1 | 9 | 11% | -3 | 0.5 | -15
CC(=O)Nc1ccc(NC(=O)Nc2ccc(C)c(C)c2)cc1 | -6 | 5% | -10 | · | ·
COc1cccc(C(=O)NCCS(=O)(=O)NCc2ccco2)c1 | · | · | -8 | 4.5 | ·
O=C(Nc1ccc(NC(=O)c2cc3ccccc3o2)cc1)c1ccc2c(c1)OCCO2 | -11 | -5% | 6 | -2.2 | ·
O=C(CSc1nnc(CNC(=O)c2cccs2)o1)NCc1ccc(F)cc1 | 2 | -1% | -5 | -0.2 | -1
COC1=C(Nc2ccc(O)cc2)C(=O)c2ccccc2C1=O | -4 | 16% | 7 | 58* | 29
CCc1nn(C)c(-c2n[nH]c(=S)n2N)c1Cl | 3 | -9% | -11 | -3.4 | -39
CC(C)(C)c1ccc(COC(=O)CN2C(=O)NC3(CCCC3)C2=O)cc1 | · | · | 5 | 1.6 | ·
OC(c1ccccc1)(c1ccc(Cl)cc1)C1CN2CCC1CC2 (configuration not stated) | · | 7% | -6 | 0.4 | ·
COc1ccc([N+](=O)[O-])cc1NC(=S)Nc1ccccc1 | 7 | -3% | -4 | -3.7 | -17
CCOC(=O)C1=C(O)CSC1=Nc1ccc(Cl)cc1 | 14 | -1% | 8 | -1.5 | -32 | Arbovirus inh repeat=-3
COc1cccc(NC(=O)CN2C(=O)NC(C)(CCC(C)C)C2=O)c1 (configuration not stated) | -5 | 92% | -7 | 1.2 | ·
CCCn1c(SCC(=O)NCc2ccccc2)nnc1-c1ccncc1 | 0 | -9% | -6 | 1.1 | -9
CC(C)CC(C(=O)O)C(C)CC(=O)Nc1ccn(-c2ccccc2)n1 (configuration not stated) | -2 | -3% | -14 | -0.3 | -190
NC(N)=NCCC[C@H](NC(=O)OCc1ccccc1)C(=O)O | 1 | -2% | 4 | -2.5 | -8
O=c1cc(-c2ccc3c(c2)OCCO3)oc2ccc(Cl)cc12 | -9 | -10% | -4 | 0.8 | -32
c1n[nH]c(SCCCCSc2ncn[nH]2)n1 | 11 | -4% | 0 | 0.5 | -21
CCOC(=O)C1CCN(C(=O)COC(=O)C2CCN(S(=O)(=O)c3ccc(C)c(C)c3)CC2)CC1 | · | · | -4 | -0.5 | ·
CCN1CCN(c2nnc(-c3ccc(F)cc3)c3ccccc23)CC1 | · | · | 8 | 0.9 | ·
O=C(Oc1c(Cl)cc(Cl)c2cccnc12)N1CCCCC1 | -2 | 18% | -2 | 2.8 | 11 | Arbovirus inh repeat=7
COC(=O)c1ccc(NC(=O)N2CCCC(C(=O)c3ccccc3OC)C2)cc1 (configuration not stated) | -7 | 0% | 0 | 1.3 | ·
Cc1ccc2sc(N(CCCN(C)C)C(=O)c3nc4ccccc4s3)nc2c1C | -22 | 3% | -8 | 6.9 | ·
CC1(C)CC2CC(C)(CN2CC(O)COc2ccccc2)C1 (configuration not stated) | -4 | 2% | 1 | -0.7 | ·
COc1cccc(Oc2ccc(C(F)(F)F)cc2NC(=O)C2=COCCO2)c1 | · | · | 9 | 3.0 | ·
Cc1ccc(S(=O)(=O)N2CC3(C)CN(S(=O)(=O)c4ccc(C)cc4)CC(C)(C2)C3=O)cc1 | 9 | -1% | 2 | 1.7 | 19
Cc1cc(C)cc(OCC(=O)Nc2ccc3c(c2)C(=O)c2ccccc2C3=O)c1 | -40 | 1% | -6 | 3.1 | -14
O=C(Nc1ccc2ccccc2c1)/C(=C/c1cccc(Br)c1)NC(=O)c1ccco1 | 9 | 3% | 4 | 2.3 | -15
Cc1cc(=O)n2nc(N3CCCC(C(=O)NCCc4ccc(Cl)cc4)C3)sc2n1 (configuration not stated) | · | · | 1 | 1.0 | ·
CC(NC(=O)NNC(N)=S)(C(F)(F)F)C(F)(F)F | · | -6% | -16 | -1.7 | ·
CCOc1ccc(OCC(=O)NCCS(=O)(=O)N2CCN(c3ccc(F)cc3)CC2)cc1 | · | · | 0 | 3.4 | ·
O=C(NCCN1CCOCC1)c1cc(-c2ccccc2Cl)on1 | · | · | -3 | -0.2 | ·
Oc1ccc(Nc2nc(-c3ccccc3O)nc3ccccc23)cc1 | · | · | 87 | 25 | ·
O=C(C1c2ccccc2Oc2ccccc21)N1CCN(c2ccc(Cl)cc2)CC1 | -16 | · | 1 | · | 0
CCOC(=O)C1CCCN(c2ncnc3c2[nH]c2cccc(OC)c23)C1 (configuration not stated) | 2 | 5% | · | -1.0 | -5
C[C@@H]1C2CC(C/C2=N\NC(=O)c2ccncc2)C1(C)C (some centres not stated) | · | · | 98 | -2.4 | ·
COc1cc(/C=N/Nc2nc3ccccc3[nH]2)ccc1O | 1 | -3% | 7 | 3.2 | -7
COc1ccc(NC(=O)CC2SC(=NCC3CCCO3)NC2=O)c([N+](=O)[O-])c1 (configuration not stated) | 3 | 2% | -3 | 5.6 | ·
c1ccc(OCCOCCSc2ncccn2)cc1 | -2 | 0% | -5 | 1.3 | -7 | Arbovirus inh repeat=1
CCn1c(SCC(=O)OC(C)C)nnc1-c1cccc(Cl)c1 | -2 | -3% | 3 | 1.4 | -11
CCOC(=O)c1cc(-c2ccccc2)nn1-c1ccccn1 | -12 | -4% | -1 | 2.1 | -14
CCCc1nc2oc3c(NCCN4CCOCC4)ncnc3c2c2c1CCCC2 | · | -15% | 2 | 0.1 | ·
O=C(O)c1cc(-n2[nH]c(=O)c3ccccc3c2=O)ccc1Cl | · | · | -3 | -1.9 | ·
CC(C)(C)c1ccc(OCC(=O)O)cc1 | -1 | -8%&9% | -1 | 0.1 | -30
Cc1cc(C)c[n+](-c2nc([O-])sc2C=O)c1 | -2 | -5% | -13 | 0.1 | -23
Cc1cc(C)cc(NC(=O)CSc2ccccc2)c1 | -5 | 67% | 26 | -2.3 | ·
CC(C)CNC(=O)c1ccc(Cl)c(N)c1 | 1 | -4% | 8 | 0.2 | -21

Six records drawn at random from the list so far, as already listed:
SMILES | Arbovirus inh | Mtb H37Rv | Mtb betalactam | RecA intein inh | YopH PTP inh | others
CCn1c(SCC(=O)OC(C)C)nnc1-c1cccc(Cl)c1 | -2 | -3% | 3 | 1.4 | -11
CC(C)(C)c1ccc(OCC(=O)O)cc1 | -1 | -8%&9% | -1 | 0.1 | -30
CC(C)CNC(=O)c1ccc(Cl)c(N)c1 | 1 | -4% | 8 | 0.2 | -21
CCCc1nc2oc3c(NCCN4CCOCC4)ncnc3c2c2c1CCCC2 | · | -15% | 2 | 0.1 | ·
CCOC(=O)c1cc(-c2ccccc2)nn1-c1ccccn1 | -12 | -4% | -1 | 2.1 | -14
Cc1cc(C)c[n+](-c2nc([O-])sc2C=O)c1 | -2 | -5% | -13 | 0.1 | -23
